MT1-MMP act inh – inhibitors of human MT1-MMP activation | AID 651647 | actives 0.061% (n = 360,000) | GFP/RFP ratio change, % at 20 µM | HT1080 RFP-PRO-GFP cells, GFP/RFP ratio fluorescence, overnight; percent of plate control window, DMSO zero | P50281;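 active = GFP/RFP ratio change of at least 30% with cell ATP level not reduced by more than half and red fluorescence within 50% of control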; also: strong numbers were not always called active
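system = RFP-PRO-GFP reporter HT1080 cells | dosing = 20 µM single dose, 1% DMSO | timing = overnight cell settling, then overnight compound exposure, 37 °C, 5% CO2 | read-out basis = GFP/RFP fluorescence ratio | controls = DMSO and RFP-L50D-GFP cell wells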
Rce1 inhib – inhibitors of yeast Ras-converting enzyme | yeast membranes, quenched prenylated peptide cleavage fluorescence | calls only | actives 0.27% (n = 290,000) | AID 2563 | Q03530;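 active = fall in fluorescence gain of 50% or more versus controls, with final raw signal at or below 3038400; inconclusive = same 50% fall but final raw signal above 3038400; inactive = fall in fluorescence gain under 50%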;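 also: plate controls were neutral control wells for no effect and wells lacking membranes for full effect; tested at 10 µM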
PABP FP inh – blocks human PABP binding to poly(A) RNA; P11940; fluorescence polarization; inhibition, % at 35 µM; actives 1% (n = 290,000); AID 2014;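 active = 50% or more with normal probe brightness, or confirmed in later tests; inconclusive = above 50% with abnormal brightness, or retests that disagree; inactive = below 50% or failed in later tests; about a fifth of its hits are not listed in these tables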;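 also: calls also rest on retests at 20 µM and on dose response follow-up; controls were probe without protein and protein plus probe with vehicle; some compounds called inactive have numbers as strong as hits; many hits fall short of the cut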
Target sequence (P11940 whole entry, looked up): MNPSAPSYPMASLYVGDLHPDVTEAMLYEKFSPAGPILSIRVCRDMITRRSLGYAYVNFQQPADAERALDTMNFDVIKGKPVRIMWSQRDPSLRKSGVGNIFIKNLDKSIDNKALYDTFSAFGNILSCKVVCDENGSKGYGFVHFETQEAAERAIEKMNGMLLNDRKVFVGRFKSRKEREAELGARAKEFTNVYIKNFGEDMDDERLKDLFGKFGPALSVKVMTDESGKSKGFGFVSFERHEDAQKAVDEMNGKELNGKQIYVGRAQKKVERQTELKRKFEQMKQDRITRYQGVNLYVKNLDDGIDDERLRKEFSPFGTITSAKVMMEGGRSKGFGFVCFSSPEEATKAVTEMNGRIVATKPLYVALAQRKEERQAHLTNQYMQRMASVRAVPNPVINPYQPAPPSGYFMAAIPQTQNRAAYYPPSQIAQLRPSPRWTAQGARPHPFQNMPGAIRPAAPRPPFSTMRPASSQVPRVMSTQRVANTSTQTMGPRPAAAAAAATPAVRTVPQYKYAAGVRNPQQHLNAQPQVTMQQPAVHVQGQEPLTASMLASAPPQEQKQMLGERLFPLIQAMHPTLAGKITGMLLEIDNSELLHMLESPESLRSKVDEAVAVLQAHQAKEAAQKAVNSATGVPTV
UUG fidelity – alters start codon recognition fidelity in yeast. S. cerevisiae UUG-firefly luciferase reporter, luminescence/redox ratio. actives 0.13% (n = 350,000). AID 602363. activity score, % at 18.7 µM;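 active = replicate mean at a twofold rise or more, about +100% in these data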;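 also: firefly luciferase made from a UUG start codon reports start codon fidelity; reporter light over untreated wells divided by growth signal over untreated wells; some hits fall short of that in this replicate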
HIV Env fusion – HIV envelope-mediated fusion inhibition | HeLa-JRFL Env/CEM21 cell fusion, luciferase | inhibition, % at 12.3 µM | actives 1.1% (n = 360,000) | AID 651610;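 active = mean replicate inhibition score of at least 50 and every replicate individually at or above 50; inconclusive = only one of the two criteria met; inactive = mean below 50 and not all replicates reaching 50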;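 also: 0% = plate neutral controls and 100% = maraviroc near 300 nM; one replicate is shown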
CSC inhib – blocks cancer stem cells | cancer stem cell-like cells viability, luminescence | inhibition, % at 7.5 µM | actives 1.1% (n = 300,000) | AID 2717;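 active = mean at 75% or more and at least half the replicates too; inconclusive = mean and replicates disagree; tested in HMLE shEcad cells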;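 also: 0% = median of negative and 100% = median of positive control wells; the first replicate is given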
eIF4H inh – inhibitors of RNA binding by human eIF4H | Q15056 | eIF4H fluorescence polarization binding assay | inhibition, % at 35 µM | actives 0.94% (n = 290,000) | AID 2012;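 active = 50% or more with normal probe brightness, or confirmed in later tests; inconclusive = above 50% with abnormal brightness, or retests that disagree; inactive = below 50% or failed in later tests; about a fifth of its hits are not listed in these tables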;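 also: calls also rest on retests at 20 µM and on dose response follow-up; 0% = protein and probe with vehicle and 100% = probe without protein; strong numbers were not always called active; many hits fall short of the cut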
eIF4H inh retest – second read-out of eIF4H inh, no call of its own (marks repeat the call); inhibition, %; compound at 20 µM; confirmation average;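 mean of two retest wells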
PABP FP inh retest – further read-out of PABP FP inh, marked with its call; inhibition, %; compound at 20 µM; confirmation repeats;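 mean of two retest wells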
MT1-MMP act inh RFP – recorded beside MT1-MMP act inh, whose call it bears; RFP signal change, %; measured here: RFP expression control read;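 0 = vehicle wells; hits needed this value within 50% of zero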
An asterisk follows results filed as active; i = inactive; ? = inconclusive; nt = not tested or not shown; & = joins results of further samples.

SMILES | MT1-MMP act inh | MT1-MMP act inh RFP | Rce1 inhib | PABP FP inh | UUG fidelity | HIV Env fusion | CSC inhib | eIF4H inh | others
O=C1N/C(=N\N=C\c2ccccn2)SC1Cc1cccc(SC(F)F)c1 (stereo unspecified) | 5 | 0 | i | -1 | -19 | 52 | 111* | -2
CC1(C(=O)NS(=O)(=O)c2ccc(Cl)cc2)CCN1C(=O)C1CCCCC1 (stereo unspecified) | -4 | -1 | nt | nt | -9 | 0 | nt | nt
O=C(/C=C/[C@H]1O[C@@H](n2ccc(=O)[nH]c2=O)[C@H](O)[C@@H]1O)NCc1ccc2c(c1)OCO2 | 4 | 0 | nt | nt | 2 | -27 | nt | nt
CCc1ccc(C(O)(CC(C)C)C(CN2CCOCC2)c2ccccc2)cc1 (stereo unspecified) | -23 | -13 | i | -7 | 1 | 52 | 50 | 1
CCCS(=O)(=O)NC(=O)C1(C)CCCN(C(=O)c2c(C)noc2C)C1 (stereo unspecified) | 1 | 1 | nt | nt | -20 | -108 | nt | nt
O=C(Nc1ccc2c(c1)OCCO2)c1ccc(Br)cc1 | 5 | -7 | nt | 4 | -25 | -215 | 3 | -4
CN(C(=O)COC(=O)C1CCN(S(=O)(=O)c2c(Cl)cccc2Cl)CC1)C1CCCCC1 | 3 | 4 | i | nt | nt | -1 | 10 | nt
COc1cc(Cl)c(NS(=O)(=O)c2ccc(-c3ccc(=O)[nH]n3)o2)c(OC)c1 | 4 | 2 | i | 12 | -24 | -4 | -9 | -14
COc1ccccc1NC(=O)Cn1c2ccccc2c2nc3n(c(=O)c21)CCS3 | 0 | -6 | i | -4 | nt | 12 | 10 | 0
O=C(CSc1n[nH]c(-c2ccco2)n1)N1c2ccccc2Sc2ccccc21 | 5 | 2 | i | 12 | -9 | -34 | 4 | -3
Cc1ccc2[nH]c(O)c(N=O)c2c1 | 0 | 6 | i | 0 | -23 | 31 | -7 | 50 | eIF4H inh retest=34;PABP FP inh retest=16
COc1ccccc1N1CCN(Cc2ccc(OC)c3ccccc23)CC1 | -5 | -1 | i | 7 | nt | nt | -14 | 6
COc1cc(S(=O)(=O)N2CCN(C(=O)c3ccccc3F)CC2)c(OC)cc1NC(C)=O | 5 | 6 | i | 7 | -12 | nt | nt | 12
C=CCOC(=O)C1=C(C)NC(C)=C(C(=O)OCC=C)C1c1ccc(O)cc1 | 1 | -1 | i | 14 | 17 | 8 | -4 | -2
CC(C)(C)OC(=O)CNC(=O)c1[nH]cnc1C(=O)NC1CCN(C(=O)OC(C)(C)C)CC1 | nt | nt | i | 3 | nt | -15 | -15 | 6
O=S(=O)(c1ccc(Cl)cc1)c1ccccn1 | -4 | -1 | i | -9 | -4 | nt | -6 | 10
CC(=O)c1ccc(NC(=O)C2CCCN(C(=O)c3ccc(Cl)cc3)C2)cc1 (stereo unspecified) | -2 | -1 | i | -10 | nt | -15 | -3 | -3
CCN(CC)S(=O)(=O)c1ccc2c(c1)N(CC(=O)NCC1CCCO1)C(=O)CO2 (stereo unspecified) | 1 | 2 | i | 1 | 1 | -10 | nt | -11
O=C(Cn1ncn2c(cc3sccc32)c1=O)NC1CCCC1 | 1 | 0 | i | -3 | -7 | 9 | -4 | -6
Cc1noc(C)c1S(=O)(=O)N(C)CC(=O)NCc1ccccc1 | 2 | 1 | i | 8 | -7 | nt | -12 | -1
CSCCC(NC(=O)COc1ccccc1)C(=O)OCCOc1ccc(F)cc1 (stereo unspecified) | 4 | 1 | i | nt | nt | nt | -5 | nt
O=C(c1ccc([N+](=O)[O-])cc1)N1CCN(C(=O)c2cccnc2)CC1 | -1 | 1 | i | 2 | -11 | -1 | -20 | 7
COc1cc(C)ccc1S(=O)(=O)NC(=O)C1(C)CCN1C(=O)COc1ccc(Cl)cc1 (stereo unspecified) | -5 | -2 | nt | nt | -4 | -2 | nt | nt
Cc1cccc(Cc2c(C)[nH]c(=O)c(C#N)c2C)c1 | -1 | -3 | i | 2 | nt | -17 | -12 | -4

Of the compounds above, these contain two or more sulfur atoms:
SMILES | MT1-MMP act inh | MT1-MMP act inh RFP | Rce1 inhib | PABP FP inh | UUG fidelity | HIV Env fusion | CSC inhib | eIF4H inh | others
O=C1N/C(=N\N=C\c2ccccn2)SC1Cc1cccc(SC(F)F)c1 (stereo unspecified) | 5 | 0 | i | -1 | -19 | 52 | 111* | -2
O=C(CSc1n[nH]c(-c2ccco2)n1)N1c2ccccc2Sc2ccccc21 | 5 | 2 | i | 12 | -9 | -34 | 4 | -3

Remaining list, next part.
SMILES | MT1-MMP act inh | MT1-MMP act inh RFP | Rce1 inhib | PABP FP inh | UUG fidelity | HIV Env fusion | CSC inhib | eIF4H inh | others
COc1ccc(CN2CCN(CCc3ccccc3)C(CCO)C2)cc1Cn1cncn1 (stereo unspecified) | 5 | 10 | i | 3 | -5 | 3 | 5 | -6
Cc1cc(OCCN2CCOCC2)ccc1[N+](=O)[O-] | -8 | 2 | i | -8 | nt | nt | -1 | -5
N/C(COc1ccc(C(=O)O)cc1)=N\O | 1 | 5 | i | 19 | -16 | nt | -7 | -3
CCN(Cc1nc2ccccc2c(=O)[nH]1)Cc1cc(=O)oc2cc(C)c(C)cc12 | -4 | -7 | i | nt | -6 | -62 | -2 | nt
CCN1CCN(C(c2cccs2)C(C)NC(=O)c2cccc(OC)c2OC)CC1 (stereo unspecified) | -2 | 0 | i | -11 | -5 | nt | nt | -7
CCCCOc1ccc(C(=O)N(C)CC(=O)Nc2ccc(C)cc2)cc1 | 2 | 1 | i | 2 | -20 | 19 | -6 | -2
O=C(Oc1ccc(-c2ccccc2)cc1)N1CCCCC1 | 4 | -8 | i | -3 | -30 | nt | -3 | -8
Cc1nc2ccccn2c1/C(O)=C1\C(=O)C(=O)N(CCN2CCOCC2)C1c1cccs1 (stereo unspecified) | -3 | 2 | i | 48 | nt | nt | -6 | 35
COCCNC(=O)/C(C#N)=C/c1ccc(OCC(=O)NC2CCCCC2)cc1 | 1 | -3 | i | 1 | nt | -2 | -1 | -9
COc1cc(/C=c2\s/c(=C\C(=O)C(C)(C)C)[nH]c2=O)cc(OC)c1OC | 10 | -4 | nt | 4 | nt | 4 | 2 | -2
CS(=O)(=O)c1ccccc1-c1nnc(NC(=O)c2cccc(N3C(=O)CCC3=O)c2)o1 | 0 | 5 | i | nt | -24 | 0 | 5 | nt
Cc1ccc(NC(=O)C(=O)NCCN2CCN(S(C)(=O)=O)CC2)cc1C | 0 | -1 | i | -3 | nt | 11 | 6 | -1
COc1ccc(C(=O)Nc2nnc(-c3ccco3)s2)cc1 | -2 | -6 | i | 10 | -17 | nt | 29 | 34
CCOC(=O)c1c(N)sc(C(O)(C(F)(F)F)C(F)(F)F)c1-c1ccc(Cl)cc1 | -3 | -8 | i | -3 | -6 | 7 | -18 | -6
COCC(C)N1CCC(Oc2ccc(C(=O)N3CCCC3)cc2)CC1 (stereo unspecified) | -1 | 4 | i | 10 | -4 | nt | -3 | 0
CCn1c(C(=O)O)c(CC(=O)Nc2cccc(C(F)(F)F)c2)c2ccccc21 | 1 | 1 | i | 9 | -5 | 1 | ? | 0
Cc1ccc(NCN2C(=O)c3ccccc3C2=O)cc1Cl | 0 | -3 | nt | nt | -14 | 1 | nt | nt
Cc1cc(C(=O)N2CCCC(N3CCN(c4cccc(Cl)c4)CC3)C2)no1 (stereo unspecified) | 0 | -5 | nt | -6 | -4 | -11 | -5 | -12
COc1ccc(-c2ccc3oc(-c4ccc(OC)cc4)c(-c4cc(OC)c(OC)c(OC)c4)c3c2)cc1 | 7 | 1 | i | nt | -6 | 17 | 16 | nt
Cc1ccc2nc(SCC(=O)Nc3ccc(C)c([N+](=O)[O-])c3)[nH]c2c1 | 2 | 2 | i | -2 | nt | 16 | 6 | 3
CCOC(=O)c1ncn2c1CN(C)C(=O)c1cc(F)ccc1-2 | 3 | 8 | i | 8&-13 | 4 | -391 | 1 | -5&-7
COc1ccc(/C=C2/C(=O)N=C3SCCN32)cc1 | 0 | -4 | i | -4 | -4 | nt | 3 | 0
Cc1ccc(C)c(N2CCN(S(=O)(=O)c3ccc4c(c3)CCN4C(=O)CCC(=O)O)CC2)c1 | -5 | -1 | i | -4 | -18 | -12 | -9 | -2
Cc1nc(CS(=O)(=O)c2ccc(Cl)cc2)cc(N2CCOCC2)n1 | 2 | 2 | i | 8 | -16 | nt | -15 | -6
Cc1nc(SCc2ccc(C(=O)O)cc2)c2c(C)c(C)sc2n1 | -5 | -2 | i | -1 | 2 | -16 | 23 | -2
O=C(CN1CCOCC1)N/N=C/c1c(O)ccc2ccccc12 | -3 | -1 | i | 0 | -15 | -2 | 15 | -3
O=C(Nc1ccccc1)/C(=C/c1ccc([N+](=O)[O-])cc1)NC(=O)c1ccco1 | -4 | 1 | i | 10 | -20 | -8 | 7 | -10
CCOC(=O)c1c(C)[nH]c(C)c1C(=O)CSc1nnc(-c2ccncc2)n1Cc1ccccc1 | 5 | 3 | i | -9 | nt | nt | 0 | 4
COc1ccccc1CNC(=O)COc1cccc(-n2cnnn2)c1 | -6 | -5 | i | nt | nt | nt | -11 | nt
CC(C)N1C(=O)CC(Nc2ccc(N3CCOCC3)cc2)C1=O (stereo unspecified) | 9 | -1 | i | -4 | -15 | -67 | -15 | -4
COc1ccc(S(=O)(=O)Nc2ccc(NC(C)=O)cc2)cc1[N+](=O)[O-] | 4 | 0 | i | 2 | nt | 17 | 45 | -2
Cc1nonc1OCCn1c([N+](=O)[O-])cnc1C | 4 | 5 | nt | -3 | nt | -2 | -13 | -10
CCCC(=O)Nc1ccc(C2C(=O)c3ccccc3C2=O)cc1 | 4 | 3 | i | 5 | -5 | 7 | 3 | -2
COc1ccccc1-n1c(SCC(=O)NC2CC2)nc2ccccc2c1=O | -4 | -1 | nt | nt | -14 | -2 | -16 | nt
CCOC(=O)[C@@H]1[C@H]2COc3cc(OC)ccc3[C@@H]2N2C(=O)N(c3cccc(Cl)c3)C(=O)[C@]12C | -8 | -6 | i | 3 | -16 | nt | -19 | -3
CN1CCC[C@H]1CCNc1ccc2c(=O)c3ccccc3n(C)c2c1 | -2 | 5 | nt | nt | 8 | -101 | nt | nt
CCOc1ccc(OCCN2CCCCC2)cc1 | 4 | 1 | i | -2 | -2 | 9 | 13 | 4
CC1Cc2ccccc2N1C(=O)CSc1nc2ccccc2s1 (stereo unspecified) | -1 | -1 | i | -4 | 2 | 26 | 22 | -10

Of the compounds above, 5 contain a furan ring, fused or not:
SMILES | MT1-MMP act inh | MT1-MMP act inh RFP | Rce1 inhib | PABP FP inh | UUG fidelity | HIV Env fusion | CSC inhib | eIF4H inh | others
COc1cc(Cl)c(NS(=O)(=O)c2ccc(-c3ccc(=O)[nH]n3)o2)c(OC)c1 | 4 | 2 | i | 12 | -24 | -4 | -9 | -14
O=C(CSc1n[nH]c(-c2ccco2)n1)N1c2ccccc2Sc2ccccc21 | 5 | 2 | i | 12 | -9 | -34 | 4 | -3
COc1ccc(C(=O)Nc2nnc(-c3ccco3)s2)cc1 | -2 | -6 | i | 10 | -17 | nt | 29 | 34
COc1ccc(-c2ccc3oc(-c4ccc(OC)cc4)c(-c4cc(OC)c(OC)c(OC)c4)c3c2)cc1 | 7 | 1 | i | nt | -6 | 17 | 16 | nt
O=C(Nc1ccccc1)/C(=C/c1ccc([N+](=O)[O-])cc1)NC(=O)c1ccco1 | -4 | 1 | i | 10 | -20 | -8 | 7 | -10

Source: PubChem BioAssay (several laboratories)

Rows were taken by chance, and some 2.9% of all compounds hit somewhere here.
